MEX-5 binding = C. elegans MEX-5 TCR-2 RNA binding activity; Q9XUB2; MEX-5/FITC-TCR2 RNA binding, fluorescence polarization; active compounds read low; activity score (negative = inhibition of binding), % at 10 µM; actives 0.38% (n = 300,000); AID 1832;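 active = inhibition past about -25% in most replicates, and total fluorescence under double the plate's negative control median, limit read from the data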;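 also: 0% = DMSO and -100% = 5 µM competing unlabeled TCR2 RNA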
MCL1-BIM inh = disrupts human MCL1 binding to BIM-BH3 peptide; GST-MCL1 / FITC-Bim-BH3 fluorescence polarization; actives 0.68% (n = 320,000); Q07820; AID 2057; inhibition, % at 10.9 µM;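 active = inhibition above the mean inhibition of all tested compounds plus 3 SD, set per campaign, cut at about 40% in these data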;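 also: 0% = DMSO wells and 100% = unlabeled Bim-BH3 peptide control; higher means more loss of mP so more displacement of Bim peptide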
Target sequence (Q07820 whole entry, looked up): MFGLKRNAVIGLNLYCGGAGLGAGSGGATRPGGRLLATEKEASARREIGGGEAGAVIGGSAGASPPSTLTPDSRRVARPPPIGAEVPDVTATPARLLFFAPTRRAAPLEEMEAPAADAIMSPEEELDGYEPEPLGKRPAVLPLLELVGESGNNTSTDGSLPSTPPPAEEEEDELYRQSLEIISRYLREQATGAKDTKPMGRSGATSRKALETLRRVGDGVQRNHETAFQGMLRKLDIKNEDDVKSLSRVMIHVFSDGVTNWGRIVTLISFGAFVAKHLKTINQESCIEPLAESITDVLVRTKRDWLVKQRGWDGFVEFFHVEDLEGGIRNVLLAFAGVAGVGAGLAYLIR
PME-1 primary = blocks human protein phosphatase methylesterase 1; Q9Y570; recombinant PME-1, FP-Rh probe fluorescence polarization; inhibition, % at 5.9 µM; actives 0.53% (n = 320,000);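 active = inhibition above the campaign mean of all compounds plus 3 SD, cut at about 26% in these data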;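 also: competitive labeling of PME-1 active site by serine hydrolase directed probe; 0% = PME-1 with DMSO and 100% = wells lacking PME-1 enzyme; inhibitors block probe labeling so polarization falls and inhibition rises; many of its hits are not listed in these tables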
Target sequence (Q9Y570 whole entry, looked up): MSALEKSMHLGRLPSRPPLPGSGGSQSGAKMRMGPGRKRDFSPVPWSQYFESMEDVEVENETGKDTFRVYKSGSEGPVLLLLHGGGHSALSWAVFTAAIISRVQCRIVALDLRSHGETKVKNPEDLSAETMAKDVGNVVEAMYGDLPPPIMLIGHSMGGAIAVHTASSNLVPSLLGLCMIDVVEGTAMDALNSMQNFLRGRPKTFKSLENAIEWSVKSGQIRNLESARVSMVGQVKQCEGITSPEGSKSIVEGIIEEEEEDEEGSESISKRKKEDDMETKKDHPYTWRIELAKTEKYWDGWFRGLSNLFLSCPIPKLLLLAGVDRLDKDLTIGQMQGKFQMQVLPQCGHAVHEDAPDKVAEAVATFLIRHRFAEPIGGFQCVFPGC
GLD-1 RNA inh = GLD-1-TGE RNA interaction inhibition (C. elegans); Q17339; purified GLD-1 + fluorescein TGE RNA, fluorescence polarization; inhibition, % at 5.96 µM; actives 0.44% (n = 320,000); AID 2280;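 active = percent inhibition above a per-plate cutoff, the plate mean of test compounds plus 3 SD, cut at about 30% in these data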;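 also: 0% = DMSO wells with GLD-1 and probe and 100% = wells lacking GLD-1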
PAFAH1B2 inh = inhibitors of human PAFAH1B2 | P68402 | recombinant PAFAH1B2, FP-rhodamine activity probe, fluorescence polarization | inhibition, % at 3.39 µM | actives 1.2% (n = 340,000) | AID 492953;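 active = inhibition above the mean of all tested compounds plus 3 SD, cut at about 24% in these data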;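 also: 0% = enzyme with DMSO and 100% = wells lacking PAFAH1B2; many of its hits are not listed in these tables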
AHR act = human AHR activation; P35869; AHR-responsive luciferase reporter cells, luminescence; activation, % at 5 µM; actives 2.5% (n = 320,000); AID 2796; in the data active = activation above about 47%;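 also: 0% = vehicle wells and 100% = reference agonist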
BCLXL inh = inhibitors of human Bcl-xL. GST-Bcl-xL / FITC-Bim BH3 peptide fluorescence polarization. actives 0.7% (n = 320,000). Q07817. AID 2129. inhibition, % at 10.9 µM;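 active = inhibition above the mean of all tested compounds plus 3 SD, cutoff set per campaign, cut at about 30% in these data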;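 also: 0% = DMSO wells and 100% = unlabeled Bim-BH3 peptide competitor; inhibitors lower millipolarization by displacing the labeled peptide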
Fam108B inh = Fam108B inhibition, counter-screen for RBBP9 inhibitors | recombinant Fam108B, FP-Rh probe fluorescence polarization | inhibition, % at 9.51 µM | actives 0.33% (n = 300,000);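 active = inhibition above the screen mean inhibition plus 3 SD, computed separately per campaign, cut at about 18% in these data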;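 also: inhibitors lower polarization as less probe binds the enzyme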
Starred values were filed as active, the others as inactive; / = no result given.

structure	GLD-1 RNA inh	MEX-5 binding	PAFAH1B2 inh	Fam108B inh	BCLXL inh	PME-1 primary	AHR act	MCL1-BIM inh
Cc1ccccc1NS(=O)(=O)c1ccc(C(=O)NCCCN2CCCC2=O)cc1	12	0.5	3	-1	2	5	0	-5
CC(C)(C)c1ccc(NC(=O)c2ccccc2)c([N+](=O)[O-])c1	3	2.0	15	2	4	7	-2	11
O=C(CCNS(=O)(=O)c1ccc(OC(F)(F)F)cc1)N1CCN(C/C=C/c2ccccc2)CC1	0	1.2	0	1	3	-1	-2	6
O=C(CSc1nc2cc([N+](=O)[O-])ccc2n1-c1ccc(F)cc1)NC1CCS(=O)(=O)C1 (stereo not given)	0	-0.8	4	5	-6	-1	1	3
O=C(NCC1CCCO1)c1cc2n(n1)C(C(F)(F)F)CC(c1ccc(Br)cc1)N2 (stereo not given)	4	-1.9	6	1	4	-3	3	4
O=C(c1cccc(NS(=O)(=O)c2ccccc2)c1)N1CCN(c2ccccc2)CC1	-1	0.4	14	-2	4	4	1	2
Cc1ccc(Cl)cc1N1CCN(C(=O)c2ccc(CS(=O)Cc3ccc(Cl)cc3)o2)CC1 (stereo not given)	0	-0.8	6	0	-4	4	1	1
Cc1cc(-c2nc3c4c5c(sc4[nH]c(=O)n3n2)CCC5)c(C)o1	-2	-11	11	16	25	5	16	76*
O=C(COC(=O)CCC1CCCC1)Nc1ccc(F)cc1Cl	-1	/	3	/	0	-4	2	0
Cc1ccc(NS(=O)(=O)c2ccc(C(=O)N3CCCN(C)CC3)cc2)cc1	4	2.4	4	-1	4	8	0	-1
CCCCc1cc(=O)oc2c3c(cc(OCC(=O)N4CCC[C@H]4C(=O)O)c12)OC(C)(C)CC3	-1	1.0	1	-5	-1	-2	-2	-6
Cc1c(C)c2c(OCC(=O)Nc3ccc(CCO)cc3)cc3c(c2oc1=O)CCC(C)(C)O3	2	0.5	-2	-17	3	-24	1	1
O=C(c1ccc(Br)o1)N1CCC(Cc2ccccc2)CC1	-1	-0.6	10	-5	-2	-1	-2	-5
COc1cccc(CNC(=O)c2ccc(CS(=O)(=O)Cc3ccc(C)cc3)o2)c1	6	0.3	6	2	1	-1	3	-1
O=C1COc2ccc(C(=O)CSc3nnc(Cc4cccs4)n3-c3ccc(Cl)cc3)cc2N1	-2	-1.3	9	6	-8	-2	2	-6
O=C(Nc1ccc(S(=O)(=O)Nc2nccs2)cc1)c1cc(-c2ccncc2)nc2ccccc12	-17	-1.0	-1	15	2	-8	11	5
CC(C)CNC(=O)COC(=O)/C=C/c1ccccc1[N+](=O)[O-]	5	-0.5	1	-3	3	0	16	-4
CCOC(=O)Nc1sc(NS(=O)(=O)c2ccc(C)cc2)nc1C	2	2.0	0	3	9	3	0	16
Cc1ccccc1NS(=O)(=O)c1cc(C(=O)NCCC2=CCCCC2)ccc1C	4	0.8	18	2	3	-3	0	0
O=C(/C=C/c1ccc2c(c1)OCCO2)N1CCN(c2ccc(F)cc2)CC1	-2	0.9	0	2	4	3	3	2
COC(=O)[C@H](C)NC(=O)Nc1cc(OC)ccc1OC	-3	0.9	2	-3	3	3	-1	6
O=C(NCc1ccccn1)c1cccc(S(=O)(=O)Nc2ccc(SC(F)F)cc2)c1	-1	0.6	3	-4	3	1	1	4
CCCOc1ccc(C(=O)c2nc3c(n2O)CCCC3)cc1	6	1.5	-1	-4	1	-2	3	0
COc1ccc2c(CC(=O)Nc3ccc(OC)c(NS(=O)(=O)c4ccc(F)cc4)c3)coc2c1	-6	-1.7	8	-5	-6	10	15	-14
O=C(COc1ccc(S(=O)(=O)N2CCCCC2)cc1)N1CCCC1	-2	1.2	-6	8	3	-1	-2	9
CCOC(=O)N1CCN(C(=O)COc2ccc(Br)cc2)CC1	2	-2.6	7	-3	1	-8	1	2
c1ccc(-n2c(SCC3CCCCO3)nnc2-c2cccs2)cc1 (stereo not given)	2	-0.2	8	-5	-4	4	2	-8
C/C(=C\C(=O)c1ccc(Cl)cc1)Nc1ccc(Br)cc1	6	1.0	5	-2	-1	-2	15	-3
CC1CCCCN1C(=O)c1cc(-c2ccc(Cl)c(Cl)c2)on1 (stereo not given)	5	/	-2	-1	1	-4	-5	9
Cc1ccc(C2CC(=O)NC(SCc3ccccc3)=C2C#N)o1 (stereo not given)	0	1.1	8	7	-2	4	1	6

Structures listed so far that have two or more sulfur atoms (6):
structure	GLD-1 RNA inh	MEX-5 binding	PAFAH1B2 inh	Fam108B inh	BCLXL inh	PME-1 primary	AHR act	MCL1-BIM inh
O=C(CSc1nc2cc([N+](=O)[O-])ccc2n1-c1ccc(F)cc1)NC1CCS(=O)(=O)C1 (stereo not given)	0	-0.8	4	5	-6	-1	1	3
O=C1COc2ccc(C(=O)CSc3nnc(Cc4cccs4)n3-c3ccc(Cl)cc3)cc2N1	-2	-1.3	9	6	-8	-2	2	-6
O=C(Nc1ccc(S(=O)(=O)Nc2nccs2)cc1)c1cc(-c2ccncc2)nc2ccccc12	-17	-1.0	-1	15	2	-8	11	5
CCOC(=O)Nc1sc(NS(=O)(=O)c2ccc(C)cc2)nc1C	2	2.0	0	3	9	3	0	16
O=C(NCc1ccccn1)c1cccc(S(=O)(=O)Nc2ccc(SC(F)F)cc2)c1	-1	0.6	3	-4	3	1	1	4
c1ccc(-n2c(SCC3CCCCO3)nnc2-c2cccs2)cc1 (stereo not given)	2	-0.2	8	-5	-4	4	2	-8

Additional compounds.
structure	GLD-1 RNA inh	MEX-5 binding	PAFAH1B2 inh	Fam108B inh	BCLXL inh	PME-1 primary	AHR act	MCL1-BIM inh
Cc1ccc(NS(=O)(=O)c2cccc(C(=O)NNC(=O)c3cccn3C)c2)c(C)c1	3	-0.8	7	1	-2	1	2	-4
COc1cccc(NC(=O)COC(=O)CNS(=O)(=O)c2c(F)cccc2F)c1	3	/	3	2	8	2	4	3
CN(C)S(=O)(=O)c1ccc(N2CCCC2)c(C(=O)NCCc2ccc(F)cc2)c1	5	0.7	1	-7	3	5	10	5
Cc1c(F)cccc1NS(=O)(=O)c1ccc2c(c1)c(C)cc(=O)n2C	5	-0.6	3	2	4	0	1	2
O=C(O)CCc1ccc(S(=O)(=O)Nc2ccc(OCc3ccccc3)cc2)cc1	2	-2.4	12	4	5	4	0	0
O=C1CCCCC1C(O)c1ccc(Cl)cc1 (stereo not given)	1	-2.7	/	-1	4	0	-1	7
Cc1cc(Br)ccc1SCC(=O)OCC(=O)N1CCN(C(=O)c2ccco2)CC1	-9	-1.0	27*	1	1	2	3	1
CCN(CC)S(=O)(=O)c1ccc(NC(=O)COC(=O)c2ccc(-n3nc(C)cc3C)cc2)cc1	5	/	-1	-6	-1	-24	0	-8
CC1=C(C(=O)OCc2ccccc2)C(c2ccc(-c3ccccc3)cc2)NC(=O)N1CCCC(=O)O (stereo not given)	5	3.3	/	-5	8	-1	1	4
CCOC(=O)c1cnn(-c2ccc(NS(=O)(=O)c3ccc(Cl)cc3)cc2)c1C(F)(F)F	8	0.8	6	-4	5	2	-2	4
Cc1c(C)c2c(OCC(=O)N3CCC(C(=O)O)CC3)cc3c(c2oc1=O)CCC(C)(C)O3	-6	0.3	0	2	10	-1	0	3
COc1cc(NC(=O)COC(=O)CNS(=O)(=O)c2ccc(F)c(F)c2F)cc(OC)c1	1	1.3	-2	-1	-3	8	5	-6
CCOC(=O)N1CCN(C(=O)c2cccc(NS(=O)(=O)c3ccc(F)c(F)c3)c2)CC1	-3	-0.7	3	-3	-4	-12	-2	-11
Cc1cccc(N2C(=O)CC(N(O)c3ccccc3)C2=O)c1 (stereo not given)	5	-1.9	-2	3	-2	-2	12	5
COc1ccccc1NS(=O)(=O)c1cccc(C(=O)OCc2nc3ccccc3s2)c1	10	7.7	2	-1	3	20	24	-5
O=C(Cc1ccc(Cl)cc1)Nc1cccc(S(=O)(=O)Nc2ccccc2F)c1	1	2.9	47*	-4	0	4	4	6
COc1ccc(S(=O)(=O)Nc2ccc(F)c(F)c2)cc1Cl	-1	-3.7	1	7	-1	4	-1	8
Cc1nn(-c2ccccc2)c(C)c1NC(=O)COC(=O)c1cccc(OC(F)F)c1	0	0.9	3	6	3	-3	0	7
O=C(Nc1cc(S(=O)(=O)Nc2ccccc2Cl)ccc1O)c1cc2c(s1)CCCC2	5	3.5	-4	-12	6	-19	2	6
O=C(O)c1ccc(Cl)c(S(=O)(=O)Nc2ccc(S(=O)(=O)Nc3cccc(Cl)c3)cc2)c1	14	-0.8	8	-13	6	-13	-2	3
CCCCCCOc1ccc(N2C(=O)CC(N3CCN(C(=O)c4ccco4)CC3)C2=O)cc1 (stereo not given)	-1	0.5	6	5	5	-5	0	3
COc1ccccc1-n1c(SCC(=O)Nc2ccc(C)cc2)nc(O)cc1=O	2	3.6	2	-3	6	-14	-2	10
Cc1ccc(S(=O)(=O)N2CCC(=O)N(CCOCc3cccc(F)c3)CC2)cc1	5	1.4	6	-7	9	5	-2	5
CC1(CC(=O)N/N=C/c2ccc(OCc3ccc(Cl)cc3Cl)cc2)OCCCO1	-1	-1.5	5	-4	1	-5	2	0
O=C(Nc1ccc(Br)cc1)c1ccc(F)c(S(=O)(=O)NCc2cccs2)c1	2	-0.8	-9	-14	0	-17	-5	-1
C=CCn1c(SCC(=O)Nc2sc3c(c2C#N)CCC(C)C3)nc2cc(C(=O)O)ccc2c1=O (stereo not given)	3	/	-1	/	/	/	3	/
COc1ccc(CC(=O)Nc2cc(S(=O)(=O)Nc3ccc(OC)cc3)ccc2OC)cc1	-1	/	3	/	/	/	5	/
O=C(Oc1ccc(/C=N/NC(=O)c2ccccc2F)cc1)c1ccccc1	-3	-1.2	-3	-2	4	6	12	1

Screens (PubChem)

An excerpt; count on the stated rates, not on these rows.
